Screens: PubChem, Johns Hopkins Ion Channel Center
Kir21 block: inhibitors of mouse Kir2.1 inward-rectifier potassium channel; Inward rectifier potassium channel 2 (Mus musculus), P35561; HEK293-Kir2.1, FluxOR thallium flux fluorescence; hits give low values; B-score at 10 µM; 310,000 tested, 0.85% active; AID 1672, 2009;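 active = fluorescence ratio B-score at or below minus 3 SD of library scores, with starting-brightness B-score within 2 SD, cut at about -4.2 in these data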;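 note: channel flux triggered by added potassium and thallium sulfate stimulus; B-score of peak minus minimum fluorescence over baseline after thallium stimulus; more negative B-score means stronger Kir2.1 block with less thallium influx; some compounds called inactive have numbers as strong as hits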
Target sequence (P35561 whole entry, looked up): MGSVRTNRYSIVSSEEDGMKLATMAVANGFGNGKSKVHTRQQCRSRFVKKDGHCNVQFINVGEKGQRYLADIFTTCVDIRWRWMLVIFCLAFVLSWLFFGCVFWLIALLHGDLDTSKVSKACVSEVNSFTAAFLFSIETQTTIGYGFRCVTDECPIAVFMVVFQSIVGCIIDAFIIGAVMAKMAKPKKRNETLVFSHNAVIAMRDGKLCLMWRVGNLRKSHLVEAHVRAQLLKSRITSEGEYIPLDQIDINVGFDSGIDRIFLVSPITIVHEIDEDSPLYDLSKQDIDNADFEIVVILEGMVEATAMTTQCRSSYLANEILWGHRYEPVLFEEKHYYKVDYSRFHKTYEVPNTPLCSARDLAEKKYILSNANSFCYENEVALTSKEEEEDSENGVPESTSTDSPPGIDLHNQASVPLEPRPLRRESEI
* marks the source's active call; other numbers are inactive results.

Kir21 block,Compound
1.4,C=CCn1c(-c2ccc(C)cc2)nc2ccccc21
-0.02,CC(=O)c1ccc(NC(=O)C(C)OC(=O)CCCN=C2NS(=O)(=O)c3ccccc32)cc1 (stereo unspecified)
-0.12,CSc1ccc(/C=N\NC(=O)COc2ccc(Cl)cc2Br)cc1
0.82,C/C(Cc1ccccc1)=N\NC(=O)c1ccccn1
1.2,Cc1c(C(=O)Nc2ccncc2)oc2ccccc12
2,CCn1nc(C)c(NC(=O)/C=C/c2ccc(OC)c(COc3ccc(Br)cc3)c2)c1C
3.8,Cc1nnc(N(C)C(=O)c2ccncc2)s1
-0.46,CCN(CC)S(=O)(=O)c1ccc(NS(=O)(=O)c2ccc(OC)c([N+](=O)[O-])c2)cc1
0.01,Cc1ccccc1Cn1nc(C)c(NC(=O)/C=C/c2cnn(C)c2C)c1C
-0.51,CCCN1C(=O)c2cc(C(=O)Nc3cccc(C(C)=O)c3)ccc2C1Nc1cccc(C(C)=O)c1 (stereo unspecified)
0.07,COc1ccc(C(=O)NC(C)CCc2ccccc2)cc1[N+](=O)[O-] (stereo unspecified)
-0.35,Cc1ccc(SCCC(=O)NCc2ccncc2)cc1
-0.01,S=C(NCCCN1CCOCC1)Nc1ccc(Cl)c(Cl)c1
-2.5,Clc1cccc(Cl)c1CSc1nnc(CN2CCOCC2)n1-c1ccccc1
-0.89,COc1cc(Cn2nnc3ccccc32)ccc1O
1.5,O=[N+]([O-])c1cccc(-c2ccc(/C=N/NC(=S)Nc3ccccc3)o2)c1
-0.62,O=S(=O)(Cc1cc(Cl)nc(-c2cccnc2)n1)c1ccccc1
1.9,Oc1ccc2ccccc2c1C1Nc2cccc3cccc(c23)N1
0.28,COc1cc2sc(C)nc2c2ccccc12
-2.3,Cn1c(=O)c2c(nc(CN3CCN(c4ccc(F)cc4)CC3)n2Cc2ccccc2F)n(C)c1=O
-0.36,CCCCCn1c(=O)[nH]c2cc(C(=O)NCc3ccco3)ccc2c1=O
-0.11,Cc1ccc(SC(C)C(=O)Nc2cccnc2)cc1 (stereo unspecified)
-0.2,CNS(=O)(=O)c1cccc(C(=O)OCC(=O)Nc2ccccc2OC(F)F)c1
1.6,CCC(C(=O)NC1CCCC1)N(C(=O)Cn1nnc(-c2ccc(C)o2)n1)C(C)(C)C (stereo unspecified)
-0.42,COc1ccc(CN2CCNC(=O)C2CC(=O)N(C)Cc2nccs2)cc1OC (stereo unspecified)

(cont.)
Kir21 block,Compound
-1.2,Cc1nc2cc(NC(=O)Nc3cccc(F)c3)ccc2n1C
0.58,COc1ccc(C2=NO[C@@H]3C(=O)N(c4c(C)cccc4C)C(=O)[C@H]23)cc1OC
1.4,O=C(NCCc1ccc(Cl)cc1)c1cnc2n(c1=O)CCS2
-0.43,CC(=O)c1ccc(NC(=S)N2c3ccccc3CC2C)cc1 (stereo unspecified)
0.11,CC(C)CN(C(=O)COC(=O)CSc1ccccc1F)c1c(N)n(Cc2ccccc2)c(=O)[nH]c1=O
0.22,O=c1cc(N2CCc3ccccc32)[nH]c(=O)n1-c1ccccc1Cl
2.9,O=S1(=O)C=C(N2CCOCC2)c2ccccc21
0.33,CCOC(=O)Cc1nnc(Nc2cccc(C)c2)c2ccccc12
-0.67,Cc1nc2cc(N3CCN(C)CC3)c(NC(=O)Cc3ccccc3)cc2c(=O)n1Cc1ccccc1
-1.1,COc1ccc2cc1Oc1ccc(cc1)C[C@H]1c3c(cc4c(c3Oc3cc5c(cc3OC)CCN(C)[C@@H]5C2)OCO4)CCN1C
-0.95,CC(C)c1csc2nc3n(c(=O)c12)CCCCC3
0.67,COc1cccc(C(=O)OCC(=O)NCCNC(=O)COC(=O)c2cccc(OC)c2OC)c1OC
-0.32,O=C(/C=C/c1cccc(Cl)c1)OCc1cn2cc(Cl)ccc2n1
-0.23,COc1ccc(-c2cc(C(=O)N3CCCCCC3)no2)cc1OC
0.05,COc1ccc(OC)c(CCNC(=O)c2nn(C)c3c2CS(=O)(=O)c2ccccc2-3)c1
-0.85,O=C(Cc1cccs1)Nc1nnc(-c2ccncc2)s1
0.02,CC(C)[C@H](NC(=O)c1ccco1)C(=O)N(C)Cc1ccc(C(F)(F)F)cc1
1.7,CCO[C@H]1OC(C(=O)O)=C[C@@H](C(C)(C)C)[C@@H]1CCCO
-0.07,COc1cccc(C(c2sc3nc(C)nn3c2O)N2CCc3ccccc3C2)c1 (stereo unspecified)
2,CC(=O)Nc1ccc2c(c1)C(=O)N(c1ccc(C)cc1)C2=O
0.67,Cc1cccc(/C=N/NC(=O)c2cc(-c3cccnc3)nc3ccccc23)c1
-1.1,CCc1ccc(NC(=O)CN2CCc3ccccc3C2)cc1
-0.29,CCOC(=O)C(C(=O)NCC1CCCO1)C1CCCCC1 (stereo unspecified)
0.47,O=C(COC(=O)Cc1ccc(Cl)cc1Cl)NCCC1=CCCCC1
1.3,O=C1CN(C(=O)COc2ccccc2)CCN1

(list continues)
Kir21 block,Compound
2.8,NNC(=O)/C(=C\c1ccc(Br)cc1)NC(=O)c1cccs1
0.31,O=C(COc1ccccc1)N1CCN(C(=O)c2cccc(F)c2)CC1
0.63,Cc1nc2sc(C(=O)c3ccccc3)c(N)c2c(C)c1C
-0.02,Cc1c(C)c(C)c(S(=O)(=O)n2[nH]c(=O)c(CCO)c2C)c(C)c1C
2.5,O=C(NC(=S)Nc1ccc(N2CCOCC2)cc1)c1ccc(Cl)cc1
0.05,Cc1c(Cl)cccc1NC(=O)c1cccc(NC(=O)CCC(=O)O)c1
-2.2,CCOCCCNC(=O)Cn1cnc2c(cnn2-c2ccc(F)cc2)c1=O
-0.42,COC(=O)N/N=C\c1ccc(OC/C=C/c2ccccc2)c(OC)c1
0.03,CC(C(=O)Nc1ncccn1)(c1ccccc1)c1ccccc1
0.77,O=C1NC(=Nc2ccccc2)S/C1=C\C=C\c1ccco1
-0.01,CNc1ccccc1C(=O)OCC(=O)N1CCN(c2ccc(OC)cc2)CC1
1.2,CCOc1ccc(-n2c(=O)cc(N3CCN(c4ccc(F)cc4)CC3)[nH]c2=O)cc1
1.2,Cc1cc(=O)oc2c(C)c(OC(C)C(=O)NCCN3CCOCC3)ccc12 (stereo unspecified)
0.59,CS(=O)(=O)Oc1ccccc1/C=C1/N=C(c2ccc(F)cc2)OC1=O
0.01,O=C(Nc1ccc(CCC(=O)N2CCCC2)cc1)c1ncn[nH]1
0.03,CSCCC(NC(=O)c1ccccc1Br)C(=O)NCC(C)(C)N1CCOCC1 (stereo unspecified)
-2.1,COc1cccc(C2SCC(=O)N2c2cccc(C)c2)c1OC (stereo unspecified)
0.53,Cn1nc(CC(=O)NCc2ccc(C(F)(F)F)cc2)c2ccccc2c1=O
-0.11,COc1ccc(CNc2cccc3[nH]c(C(F)(F)F)nc23)cc1OC
-0.25,Nc1nc(CSC(=S)N2CCN(c3ccccc3)CC2)nc(Nc2ccccc2)n1
0.11,Cc1ccc(C)c(OCc2cc(C(=O)N(C)Cc3nccs3)no2)c1
2,CC(=O)Nc1cccc(S(N)(=O)=O)c1C
-0.01,CCC(c1nnc(SCC(=O)Nc2ccc(C(=O)Nc3ccccc3OC)cc2)o1)N(C)C (stereo unspecified)
0.2,Cn1c(-c2cccc(F)c2)nc2c1c(=O)[nH]c(=O)n2Cc1ccccc1
0.04,CCn1cc(C(=O)OCC(=O)c2cc(C)n(-c3ccccc3)c2C)c(=O)c2ccc(C)nc21

Continuation:
Kir21 block,Compound
1.6,Cc1cccc(-c2noc(CCC(=O)NCc3ccccc3)n2)c1
0.71,O=[N+]([O-])c1c(Nc2ccc(Br)cc2)ccc2nonc12
-0.44,Fc1cccc(Cl)c1Cn1nnc2c(N3CCC4(CC3)OCCO4)ncnc21
0.41,O=C(O)/C=C\C(=O)Nc1ccccc1C(=O)NC1CCCCC1
-1.7,COC(=O)c1ccc(C(=O)Nc2cc(Cl)ccc2Cl)cc1NC(=O)c1ccc(N(C)C)cc1
-1.1,O=C(O)CSCC(=O)NCc1cccc(C(F)(F)F)c1
-0.17,COc1ccc(CNC(=O)COc2ccc(S(=O)(=O)N3CCOCC3)cc2)cc1
-0.16,Cc1ccc(NC(=O)CSc2nnc(Cn3c(=O)sc4ccccc43)n2C)cc1Cl
0.26,Cc1ccn2cc(CCNS(=O)(=O)c3ccc(F)c(C(F)(F)F)c3)nc2c1
0.28,N/C(=N\OC(=O)COc1ccc(Br)cc1)c1ccncc1
0.53,NC(=O)c1ccsc1NC(=O)COC(=O)/C=C/c1ccccc1
-0.25,COc1ccc(NC(=O)CN2C(=O)CSc3ccc(S(=O)(=O)N4CCC(C)CC4)cc32)cc1
-1.2,COc1ccc(OCC(=O)Nc2ccccc2Cl)cc1
1.6,Cc1cc(NC(=O)c2ccc(NC(=O)CC(C)C)cc2)no1
0.48,COc1cc(/C=N/NS(=O)(=O)c2ccc3ccccc3c2)ccc1OCCN1CCOCC1
-2.6,O=C(Cc1ccc(Cl)cc1Cl)NCc1cccnc1
-0.51,CC(=O)c1cccc(NC(=O)CCC(=O)Oc2ccc(C)cc2)c1
-2.2,Cc1ccc(C(=O)NNC(=O)CSc2nnc(CNc3ccc(F)cc3)n2C)cc1
-5.7,O=C(OCc1ccc([N+](=O)[O-])cc1)c1cc(=O)c2ccccc2o1
1.4,CC(=O)NS(=O)(=O)c1ccc(NC(=O)c2ccc(Br)o2)cc1
-0.64,COc1ccc(-c2[nH]ncc2CN(C)CCc2c(C)n[nH]c2C)c(F)c1
1.1,COC(=O)c1c(NC(=O)C2CC2)sc2c1CCCC2
1.1,CCCCCCC(=O)N/N=C1\CCCc2ccccc21
-0.08,CCCc1cc(C(=O)Nc2cc(OC)c(Cl)cc2OC)no1
0.25,COc1ccccc1-c1cc(C(F)(F)F)nc(S(=O)(=O)CCCC(=O)N2CCCCC2C)n1 (stereo unspecified)

Ordered by the number under Kir21 block (lowest first): three from the list above
Kir21 block,Compound
-1.1,O=C(O)CSCC(=O)NCc1cccc(C(F)(F)F)c1
0.26,Cc1ccn2cc(CCNS(=O)(=O)c3ccc(F)c(C(F)(F)F)c3)nc2c1
1.6,Cc1cc(NC(=O)c2ccc(NC(=O)CC(C)C)cc2)no1

Exported as labelled records: part of the list above.
> Cc1cccc(-c2noc(CCC(=O)NCc3ccccc3)n2)c1
  Kir21 block = 1.6

> O=S(=O)(Cc1cc(Cl)nc(-c2cccnc2)n1)c1ccccc1
  Kir21 block = -0.62

> Nc1nc(CSC(=S)N2CCN(c3ccccc3)CC2)nc(Nc2ccccc2)n1
  Kir21 block = -0.25

> CC(=O)NS(=O)(=O)c1ccc(NC(=O)c2ccc(Br)o2)cc1
  Kir21 block = 1.4

By substructure: the compounds so far containing a tert-butyl group.
Kir21 block,Compound
1.6,CCC(C(=O)NC1CCCC1)N(C(=O)Cn1nnc(-c2ccc(C)o2)n1)C(C)(C)C (stereo unspecified)
1.7,CCO[C@H]1OC(C(=O)O)=C[C@@H](C(C)(C)C)[C@@H]1CCCO

(listing goes on)
Kir21 block,Compound
-0.11,CC(C)CNC(=O)c1ccc(C2SCC(=O)N2Cc2ccccc2)cc1 (stereo unspecified)
0.39,Cc1ccc(C(=O)NC(Cc2c[nH]c3ccccc23)C(=O)O)cc1 (stereo unspecified)
1.4,CCN1CCN(/C=N/c2nc3c(s2)CCCC3)CC1
-0.97,CCOC(=O)N1CCC(NC(=O)CS(=O)(=O)Cc2nc(-c3cccc(OC)c3)oc2C)CC1
1.2,Cc1cccn2c(CN3CCCN(C=O)CC3)c(C(=O)N(C)CCc3ccccc3)nc12
-2,Cc1cccc(C)c1NC(=O)C1c2cccc[n+]2CC(=O)N1Cc1ccc2c(c1)OCO2 (stereo unspecified)
0.68,COc1ccc(C)cc1NC(=O)C(NCC1CCCO1)c1ccccc1 (stereo unspecified)
1.2,Cc1ccc(C(=O)N/C(=C/c2cccs2)C(=O)NCCCn2ccnc2)cc1
-2.1,Cc1ccnc2nc(C(=O)Nc3nc4ccccc4s3)nn12
-0.14,CCCCCCCCc1c(O)nc(-n2[nH]c(C)c(CCO)c2=O)[nH]c1=O
0.61,O=C1Nc2ccccc2C1=Nc1ccc(Br)cc1
-0.49,CCCCC(=O)NCCNC(=O)c1cc(OCC(F)(F)F)ccc1OCC(F)(F)F
-0.02,Cc1ncsc1CCC(=O)N1CCCC(Nc2ccc(F)c(F)c2)C1 (stereo unspecified)
2.2,CCOc1cc(NC(=O)c2ccccc2C)c(OCC)cc1NC(=O)C1=Cc2ccccc2OC1
-0.34,O=C(COC(=O)c1cncc(Br)c1)NCc1ccco1
-0.03,O=[N+]([O-])c1ccc(N2CCN(Cc3cccc([N+](=O)[O-])c3)CC2)cc1
-1.1,CCC(=O)N(CCC1(C(C)C)CCOC(C)(C)C1)Cc1ccco1 (stereo unspecified)
-0.04,CCOc1ccc(CCNC(=O)c2sc3nc4n(c(=O)c3c2C)CCC4)cc1OCC
-1.2,CC(C)(C)NC(=O)CN(C(=O)CCC(=O)Nc1nccs1)c1ccc(F)c(Cl)c1
-3.3,CCc1cccc(CC)c1NC(=S)NC(C)c1ccccc1 (stereo unspecified)
-1.7,C/C(=N\NC(=O)COc1ccc2ccccc2c1)c1cccs1
1,CC[C@H](C)[C@@H](C(=O)N1CCNCC1)n1cc([C@@H](N)Cc2ccc(O)cc2)nn1
0.33,CCn1c(SCc2cccc(F)c2)nnc1-c1cccnc1
-0.21,CCC(C)C(NC(=O)C1CCC(C)CC1)C(=O)NCc1ccccn1 (stereo unspecified)
-0.31,Cc1cc(Br)ccc1NC(=O)CNC(=O)CSc1n[nH]c(N)n1

Next part:
Kir21 block,Compound
1.6,c1ccc(Cn2nnc3c(NCc4ccc5c(c4)OCO5)ncnc32)cc1
0.32,CCOCc1c(C(=O)OCC(=O)/C(C#N)=C(\C)N)oc2ccccc12
0.46,CC1CN(CC(O)COc2ccc(C(C)C)cc2)CC(C)O1 (stereo unspecified)
-2.1,CCc1ccc(N=C2NC(=O)/C(=C/c3cc(Br)c(OCC(=O)O)c(OC)c3)S2)cc1

Not all compounds are listed; most or all hits stand in other tables.
